# TRPML1 ag – human mucolipin-1 channel agonism | Q9GZU1 | TRPML1-expressing cells, Ca2+ dye fluorescence, FDSS; host cell line not named in the record; reference of the full effect not given here | activation, % (test concentration not listed) | hit rate 0.12% among 410,000 | AID 624414; in the data active = activation above about 50%; inconclusive = about 30% to 50%; inactive = below about 30%; further: 0% is about no effect; the text of the record puts the active cut at 80%
# Target sequence (Q9GZU1 whole entry, looked up): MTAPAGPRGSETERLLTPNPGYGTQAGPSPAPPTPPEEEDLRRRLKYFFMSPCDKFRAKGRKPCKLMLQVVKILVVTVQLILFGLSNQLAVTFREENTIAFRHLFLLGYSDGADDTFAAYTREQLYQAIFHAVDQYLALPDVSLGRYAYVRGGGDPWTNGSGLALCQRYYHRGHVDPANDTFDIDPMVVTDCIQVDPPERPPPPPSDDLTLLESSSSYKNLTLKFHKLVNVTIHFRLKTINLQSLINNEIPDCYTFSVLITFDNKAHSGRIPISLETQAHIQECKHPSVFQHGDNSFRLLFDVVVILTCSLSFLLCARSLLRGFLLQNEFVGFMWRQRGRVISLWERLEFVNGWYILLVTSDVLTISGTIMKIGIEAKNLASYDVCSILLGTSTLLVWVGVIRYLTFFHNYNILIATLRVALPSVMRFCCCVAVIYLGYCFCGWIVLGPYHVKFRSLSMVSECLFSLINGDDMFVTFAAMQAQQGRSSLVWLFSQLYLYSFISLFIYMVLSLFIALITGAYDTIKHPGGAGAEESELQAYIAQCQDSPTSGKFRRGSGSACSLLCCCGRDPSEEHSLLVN
#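 Kinetic FDSS Ca2+ read in Tet-induced TRPML1-DL cells (ABD Ca8 dye plus quencher, 45-90 min RT loading): baseline, then compound, then 110 s agonist window; EC80 agonist 54-4 at 4uM final added afterwards for a 110 s antagonist window.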
# TRPML1 inh – blocks the human TRPML1 channel | Q9GZU1 | TRPML1-inducible cells, Ca2+ dye fluorescence, FDSS; active compounds read low; inhibition of EC80 agonist-evoked calcium signal | activity change, negative = inhibition, % (concentration not given with the values) | hit rate 0.02% among 390,000; in the data active means activity change below about -50%; inconclusive means about -30% to -50%; inactive means above about -30%;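 further: stimulus is agonist 54-4 at its EC80 concentration; on the % scale 0 is the no-effect control and ±100 the full control effect; the text of the record puts the active cut at -80%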
#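 Tet-induced TRPML1-DL cells loaded with Ca8 no-wash calcium dye were read kinetically on FDSS. Compound addition was followed by EC80 agonist 54-4 (4 uM final); inhibition was read over 110 s.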
# gsp antag – antagonists of gsp mutant (McCune-Albright syndrome); gsp-mutant cells, cAMP HTRF, 30 min; control for the full effect not named in the record; Potency, µM (highest dose often 76.9 µM), for inactives: at the highest dose activity change, negative = inhibition, most hits filed as inhibitors; hit rate 0.4% among 340,000; AID 624288; active = falling curve of any shape with a large fitted effect; inconclusive = falling curve, mostly with a smaller effect; inactive = flat or rising curve; cell line not stated here;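 further: intracellular cAMP measured with PDE inhibitor Ro 20-1724 present during compound exposure; potency means the concentration at half of the fitted maximal effect; on the % scale 0 is the no-effect control and ±100 the full control effect; nearly all actives have a fitted effect of over 65% in size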
#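 HTRF cAMP measurement after 30 min RT detection following 30 min, 37C compound treatment alongside […] (added as 300 uM solution) in G418-selected cells seeded at 2000/well and grown 16–24 h.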
# gsp agonist – activates gsp, the McCune-Albright syndrome mutation. Potency, µM (highest dose often 76.9 µM), for the others: at the top dose activation (cAMP increase), usual class: activators. gsp mutant cells, cAMP HTRF, 30 min; control for the full effect not named in the record. hit rate 0.13% among 340,000; active = well fitted activation curve with a large enough effect; inconclusive = small, poorly fitted or top-dose-only effect, or another doubt; inactive = no such curve, though single readings can be large or run the other way; cell line not stated here;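 further: phosphodiesterase inhibitor Ro 20-1724 added with compounds to block cAMP breakdown; potency means the concentration at half of the fitted maximal effect; nearly all actives have a fitted effect of over 60% in size; about a fifth of the inactives were tested at one dose only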
#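 Cells in DMEM/10% FBS with G418 were pretreated with compounds in DMSO plus […] (300 uM stock) for 30 min at 37C. cAMP was measured by HTRF (cAMP-d2 plus anti-cAMP antibody-K) after 30 min at room temperature.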
# Menin MLL FP FL – displaces fluorescein MLL peptide from human menin. Fluorescence polarization, fluorescein-MLL peptide displacement from menin. FP activity change, % at 61.4 µM. AID 1766. 290,000 tested, under 10 active; inconclusive = falling polarisation curve, or a change in total fluorescence; inactive = total fluorescence flat and polarisation flat or rising; no compound was filed as active; the % refers to the polarisation; negative = inhibition;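 further: % of control where 0% means no effect; inhibitors lower the polarisation; unlabelled MLL peptide was the positive control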
# ClpP mod – qHTS Assay for Activators of ClpP | ATP-dependent Clp protease proteolytic subunit (Bacillus subtilis (strain 168)), P80244 | purified B. subtilis ClpP, FRET peptide cleavage, 20 min | Potency, µM (series often up to 57.5 µM), for inactives: top-dose activity change, negative = active | hit rate 1.9% among 340,000 | AID 651965, 2013; active = well fitted falling curve with a large enough effect; inconclusive = small, poorly fitted or top-dose-only effect; inactive = no such curve, though single readings can be large or run the other way; further: potency means the concentration at half of the fitted maximal effect; the source files actives as falling curves though it sought activators and does not explain the sign; nearly all actives have a fitted effect of over 65% in size; many hits overshoot -100%
# Target sequence (P80244 whole entry, looked up): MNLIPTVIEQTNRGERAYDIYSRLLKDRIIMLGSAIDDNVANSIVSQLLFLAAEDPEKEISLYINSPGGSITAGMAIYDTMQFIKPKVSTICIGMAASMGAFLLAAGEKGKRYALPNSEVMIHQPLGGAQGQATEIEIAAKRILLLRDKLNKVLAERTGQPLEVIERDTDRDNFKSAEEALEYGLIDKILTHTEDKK
#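 Purified B. subtilis ClpP, 10 microg/mL final in Tris/HCl pH8 with KCl, BSA, glycerol and Tween-20, cleaved an Abz/nitrotyrosine-quenched decapeptide. Fluorescence (ex 320, em 430) was read at 0 and 20 min at room temperature. Delta was normalized to 5.8 microM ADEP and DMSO/no-enzyme controls.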
# The depositor's hits bear a star; u = inconclusive; x = no result given; & = joins results of further samples; [ ] = dose if it differs, or a comment.
SMILES,TRPML1 ag,TRPML1 inh,gsp antag,gsp agonist,Menin MLL FP FL,ClpP mod
CC(=O)c1ccc(-n2c(CCC(=O)O)ccc2-c2ccc(Br)cc2)cc1,0.4,10.8,0.891µM*,u,12.0,-0.3%
COc1cccc(NC(=O)CSc2nc3n[nH]c(C)c3c(=N)n2-c2cccc(OC)c2)c1,3.7,6.7,-7.4%,17.5%,2.7,-2.1%
O=C(Nc1ccc2c(c1)OCCO2)c1ccncc1,2.1,-1.1,-6.7%,-3.8%,0.8,-1.6%
CC(C)CN1C(=O)/C(=C/c2ccco2)NC1=S,-0.6,10.3,3.4%,-4.5%[15.4 µM],u,0.8%
CCC(=O)N1CCN(c2cc(N3CCCC3)c(F)cc2[N+](=O)[O-])CC1,-0.4,-15.0,-15.6%,u,x,-4.1%
COCCCNC(=O)CN1CCN(Cc2ccc(Cl)cc2)C1=O,-0.7,12.3,7.7%,2.8%,1.5,1.4%
CC1CCCC(C)N1CC(O)COCc1ccccc1F (stereo unspecified),x,x,6.5%,12.1%,-7.3,-0.7%
C=CCN(c1ccccc1OC)S(=O)(=O)c1cccc(C(=O)Nc2nnc(C3CC3)s2)c1,1.2,24.5,u,-46.9%,x,-2.9%
COc1ccc(CCNC(=O)c2ccc3c(c2)OCCO3)cc1,0.0,4.1,-3.2%,18.8%,-4.5,x
CCCNc1c(N)n(-c2ccccc2)c(=O)[nH]c1=O,-0.4,-6.7,4.1%,-29.1%,-5.7,u
O=C(CCc1nc2ccccc2c(=O)[nH]1)NNC(=O)COc1ccc(Br)cc1,1.3,-5.2,11.1%,14.2%,x,1.4%
COc1cc(NC(=O)CN2CCCCC2C)c(C)cc1[N+](=O)[O-] (stereo unspecified),1.4,-10.3,-23.6%,9.4%,1.8,0.1%
CC(C)CCn1c(=O)c2cccnc2n(CC(=O)Nc2ccccc2)c1=O,0.3,6.4,x,x,x,30.4%
O=C(CN(C(=O)CCC(=O)Nc1nccs1)c1ccc(F)cc1)NCc1ccco1,-0.7,-4.5,7.0%,-40.9%[inhibitor],-0.1,-2.4%
CC(C)c1ccc(NS(=O)(=O)c2cn(C)c(=O)n(C)c2=O)cc1,0.1,8.7,-1.6%,-42.8%[inhibitor],2.1,-0.1%
CCOc1ccc(CCNC(=O)COC(=O)CNS(=O)(=O)c2ccc(C)cc2)cc1OCC,0.1,8.9,-9.7%,-50.0%,x,0.7%
O=c1cc(N2CCCCC2)c(-c2ccccc2)nn1Cc1ccc(Cl)cc1Cl,21.9,2.4,-16.5%,-28.1%,1.4,-6.4%
CCOc1ccc(C(=O)O/N=C(\N)c2ccc([N+](=O)[O-])cc2)cc1OCC,0.3,-2.4,1.1%,u,1.6,-2.9%
CC(C)C(=O)Nc1ccc(C(=O)NNC(=O)c2ccco2)cc1,0.5,2.4,3.4%,2.4%,2.4,-0.5%
COC(=O)C1=C(C)OC(N)=C(C#N)C1c1cccnc1 (stereo unspecified),-0.5,-7.7,25.8%,-5.7%,0.1,-0.2%

# Exported with bars between the fields: entries from further up
molecule | TRPML1 ag | TRPML1 inh | gsp antag | gsp agonist | Menin MLL FP FL | ClpP mod
O=C(CN(C(=O)CCC(=O)Nc1nccs1)c1ccc(F)cc1)NCc1ccco1 | -0.7 | -4.5 | 7.0% | -40.9%[inhibitor] | -0.1 | -2.4%
COc1cccc(NC(=O)CSc2nc3n[nH]c(C)c3c(=N)n2-c2cccc(OC)c2)c1 | 3.7 | 6.7 | -7.4% | 17.5% | 2.7 | -2.1%
CCOc1ccc(C(=O)O/N=C(\N)c2ccc([N+](=O)[O-])cc2)cc1OCC | 0.3 | -2.4 | 1.1% | u | 1.6 | -2.9%

# Other compounds:
SMILES,TRPML1 ag,TRPML1 inh,gsp antag,gsp agonist,Menin MLL FP FL,ClpP mod
O=C(OCC(=O)N1CCCC1)c1c(Cl)cccc1Cl,0.1,18.9,3.3%,16.3%,-5.8,x
O=C(O)C(=Cc1ccccc1[N+](=O)[O-])c1ccc2c(c1)OCO2,-0.3,9.1,x,u,x,1.1%
O=C(NCCS(=O)(=O)N1CCN(c2ccc(F)cc2)CC1)c1ccc(Br)o1,3.8,-0.2,-0.7%,4.2%,-0.2,3.0%
COc1ccc(NC(=O)c2nnn(CC(=O)Nc3ccc4c(c3)OCO4)c2N)c(OC)c1,-0.5,-3.9,7.1%,-21.2%,2.7,-25.4%
COc1ccccc1CN1CCSCC1,0.2,5.6,-6.2%,u,5.8,-1.6%
CCN(CC)CCN(C(=O)c1ccc(S(=O)(=O)N(C)C2CCCCC2)cc1)c1nc2c(C)cccc2s1,0.1,2.7,-10.2%,-43.8%[inhibitor],4.3,-21.8%
CCCc1cc(=O)[nH]c(Nc2ccc(Cl)cc2)n1,2.6,-1.1,-11.9%,u,0.9,x
O=C(Cc1cccc2ccccc12)Nc1ccc(N2CCOCC2)cc1,-0.3,-1.4,-3.7%,21.7%,-0.9,-1.0%
Cc1ccc(NC(=O)CCNS(=O)(=O)c2cccc3nonc23)cc1Cl,-0.1&-0.7,-13.4&-4.0,-9.6%,25.4%,-3.6,-2.2%
O=C(O)C1CC(=O)N(c2ccc(OCc3ccc(Br)cc3)cc2)C1 (stereo unspecified),-0.1,1.7,1.7%,u,0.1,x
CCN(CC)S(=O)(=O)c1ccc(C)c(NS(=O)(=O)c2cc(/C=C/C(=O)O)cc(OC)c2OC)c1,-0.7,2.1,15.2%,-3.7%[15.4 µM],-0.4,x
COc1ccc(S(=O)(=O)NC2CC3CCC2C3)cc1Br (stereo unspecified),0.1,16.9,-5.4%,13.0%,-6.0,-0.2%
CC(C)(C)c1ccc(C(=O)NC(=S)N2CCCCCC2)cc1,0.3,-0.2,-0.9%,-2.2%,x,0.4%
CCc1cccc(CC)c1NC(=S)NCC(c1cccnc1)N1CCOCC1 (stereo unspecified),-0.9,-10.4,-0.9%,-34.5%[inhibitor],-3.0,-3.2%
COc1ccc2c(c1)CCc1c(C(=O)N3CCCc4ccccc43)noc1-2,5.1,-1.5,39.8µM*,-5.3%,0.3,-2.8%
Cc1ccc(NC(=O)c2nc[nH]c2C(=O)N[C@@H](C)c2ccccc2)cc1,1.2,-6.5,-10.6%,x,-0.5,-2.1%
CCOc1cc2c(cc1/C=C(/C#N)c1ccc(C(=O)O)cc1)OCO2,-0.5,-14.5,35.5µM*,-1.1%,1.0,x
CC1CCOC2(O1)C(=O)Nc1ccccc12 (stereo unspecified),0.4,23.3,6.1%,24.2%,-0.7,x
COc1ccc(-n2nc3c(c2NC(=O)C(C)C)CSC3)cc1,-0.1,-24.8,-1.4%,-10.3%,6.4,-4.3%
O=C(NCC(c1ccco1)N1CCOCC1)c1cccc([N+](=O)[O-])c1 (stereo unspecified),x,x,6.0%,-0.7%,-2.0,2.1%
CCOC(=O)Nc1ccc2c(c1)C(=NNC(N)=S)c1ccccc1-2,1.3,6.5,u,-3.6%[15.4 µM],x,-4.7%
COc1ccc(-n2c(CCc3ccccc3)nnc2SCC(=O)c2ccc(Cl)cc2)cc1,3.4,26.4,-5.8%,-3.7%,2.4,-0.5%
O=C(CCSCCC(=O)NCC1CCCO1)NCC1CCCO1 (stereo unspecified),0.2,1.2,14.0%,17.8%,0.8,0.9%
CC1CCN(c2nc3c(c(=O)[nH]c(=O)n3C)n2Cc2ccccc2)CC1,-0.9,1.6,-4.3%,u,2.1,0.9%
CC(=O)c1ccc(OCC(O)CN2CCN(CCN3C(=O)c4cccc5cccc(c45)C3=O)CC2)cc1 (stereo unspecified),-0.2,3.5,-7.8%,1.6%,0.9,-25.1%
C#CCSc1nc(C)cc(C(=O)OCC)c1C#N,-0.7,-4.0,-4.6%,17.2%,0.7,-2.1%
COc1ccc(S(=O)(=O)N(C)CC(=O)NCCN2CCOCC2)cc1Cl,-0.9,-2.3,20.7%,-6.6%[15.4 µM],1.7,-0.3%
CC(C)(C)n1nc2c(c1NC(=O)c1ccc(Br)o1)CS(=O)C2 (stereo unspecified),1.5,4.7,2.1%,11.0%,0.7,0.0%
Cc1ccc(S(=O)(=O)N(C)CC(=O)N2CCN(Cc3ccc4c(c3)OCO4)CC2)cc1,2.0,-6.6,6.8%,-3.9%[15.4 µM],0.1,x
O=C1NC(=Nc2ccccc2Cl)S/C1=C\c1cc([N+](=O)[O-])ccc1O,9.4,-19.6,-12.0%,-21.6%,u,0.9%
CC(C)c1c(C(=O)N/N=C/c2c[nH]c3ccccc23)nnn1-c1nonc1N,-1.2,10.8,0.8%,9.2%,x,-5.7%
OC(CN1CCCCCC1)CN(c1ccccc1)c1ccccc1 (stereo unspecified),0.5,3.8,2.2%,u,-4.8,-19.1%
O=C(Nc1ccc(C(=O)N2CCOCC2)cc1)c1cnn2c(C(F)F)cc(-c3ccccc3)nc12,0.0,4.4,-12.4%,21.4%,2.7,x
CCCc1nn2cc(-c3ccc(C)c(C)c3)nc2s1,-0.5,-8.8,x,x,x,1.0%
COc1ccccc1N(CC(=O)NCCSc1ccc(Cl)cc1)S(C)(=O)=O,4.1,-12.4,3.7%,u,-3.0,x
O=C(O)/C=C/C(=O)Nc1ccc(Cc2ccc(NC(=O)/C=C/C(=O)O)cc2)cc1,0.7,-21.6,-2.7%,7.8%[15.4 µM],7.8,-2.5%
NS(=O)(=O)c1ccc(-n2cccc2C=O)cc1,-0.9,35.5,-9.2%,21.9%[15.4 µM],0.6,-0.2%
N#CC1(NC(=O)COC(=O)C23CC4CC(CC(O)(C4)C2)C3)CCCCC1,-0.2,34.6,1.6%,10.1%[15.4 µM],x,0.4%
Cc1cc2c(cc1C)-c1nnnn1C(C)(C)C2,-0.5,-1.9,-35.0%,-21.3%,6.2,-1.2%
CCN(CC)CCNC(=O)c1c(C)oc2ncnc(N3CCOCC3)c12,-0.1,6.2,x,x,x,0.1%
O=C(CSCc1cccc(F)c1)N1CCN(c2ccccc2)CC1,2.2,3.7,-5.5%,-0.3%,1.3,-0.6%
COC(=O)c1ccc(NC(=O)N2CCc3c([nH]c4ccccc34)C2c2ccc(C)cc2)cc1 (stereo unspecified),1.5,11.6,x,x,x,-20.4%
O=C(NC1CCCCC1)c1cc(-c2ccccc2Cl)on1,1.3,18.8,-8.6%,8.0%[15.4 µM],0.1,-1.1%
Cc1ccnc(SCC(=O)Nc2sc3c(c2C#N)CCC(C(C)(C)C)C3)n1 (stereo unspecified),-0.7,-3.9,-2.5%,7.3%,2.3,-0.6%
CSc1nc(N)nc(SCCS(=O)(=O)c2ccc(Cl)cc2)c1C#N,1.2,39.7,-6.7%,u,0.3,-5.2%
O=C(NCc1ccccc1)C(c1ccccc1F)N(CC1CCCO1)C(=O)c1ccccn1 (stereo unspecified),-1.5,2.0,-11.0%,17.5%[15.4 µM],-1.4,-1.0%

# Bioassay records: PubChem BioAssay, National Center for Advancing Translational Sciences (NCATS)
